Compound activity: PubChem BioAssay, Broad Institute
T cruzi inh: T. cruzi replication inhibition | T. cruzi beta-gal in NIH3T3, luminescence, 90 h | actives 1.4% (n = 300,000) | inhibition, % (test concentration not listed);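 active = mean inhibition across valid replicates above about 55%, limit read from the data; inconclusive = mean below that limit but half or more replicates reach it; inactive = mean below it, under half of replicates reach it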;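 note: signal also drops with host cell toxicity which is not excluded here; 0% = plate median of DMSO wells and 100% = zero luminescence signal; higher percent means less beta-gal luminescence so fewer parasites; stock transfer was 50 nL into about 50 µL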
A1 inh: inhibitors of the anti-apoptotic protein A1, read as caspase activation. MEF A1-2A-BIM cells, Caspase-Glo 3/7 luminescence, 3 h; percent of clofoctol response, vehicle zero. caspase activation, % (no concentration beside the values). actives 0.066% (n = 330,000);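 active = over half of replicate activation scores above 10%, or exactly half above 10 with the replicate mean above 10; inconclusive = replicate mean below 10 yet half the replicates above 10; inactive = over half of replicates below 10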;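 note: wells of about 30 µL received 50 nL stock; many hits fall short of the cut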
Beta cell apopt: beta cell apoptosis inhibition; INS-1E cytokine-induced death, ATP luminescence, 48 h; percent of positive-control rescue, neutral wells zero; protection from apoptosis, % (test concentration not listed); actives 0.8% (n = 300,000); AID 435005;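 active = all replicates at 75% or more, or half of them and the mean; inconclusive = half reach 75% but not the mean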;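 note: 0% = cytokine-treated negative control wells and 100% = positive control rescue; higher means more ATP so stronger rescue from cytokine killing; wells of about 40 µL received 100 nL stock; the first replicate is given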
Numbers without * were called inactive; u = inconclusive; x = not tested or not shown.

Each structure is followed by: T cruzi inh, A1 inh, Beta cell apopt
CCCCOC(=O)NS(=O)(=O)c1sc(CC(C)C)cc1-c1ccc(Cn2c(CC)nc3c(C)cc(C)nc32)cc1
→ x, -0.7, -7
O=C1NC(=S)S/C1=C\c1ccc(SCc2ccco2)o1
→ x, -0.7, -2
C=C(C(=O)Oc1ccccc1C(C)(C)C)c1ccccc1
→ x, u, 7
CCOC(=O)c1c(C)c2c(n1C)CCC/C2=N\O
→ x, 0.0, -4
Cc1ccc(S(=O)(=O)/N=C2/C=C(Sc3ncn[nH]3)C(=O)c3ccccc32)c(C)c1
→ x, 0.1, 129*
Fc1cccc(Cl)c1CSc1nnc(CN2CCOCC2)n1-c1ccccc1
→ 6, 0.2, 0
CCCCCCCCS(=O)C1CCS(=O)(=O)C1 (centres undefined)
→ -3, -0.3, -1
COc1ccc(C(=O)N/N=C/C(C)c2ccccc2)cc1OC (centres undefined)
→ -6, -0.4, -4
CCn1nc(C)c(/C=N/NC(=S)Nc2ccc(Cl)cc2Cl)c1C
→ 13, -0.7, 6
C/C(=N\NC(=O)COc1ccc(C(C)(C)C)cc1)c1ccc(-n2ccnc2)cc1
→ 13, 0.3, -4
O=C(/C=N/O)Nc1ccc(F)cc1
→ 5, -0.3, -1
O=c1/c(=C/c2ccc(O)cc2)sc2nc3cc(Br)cnc3n12
→ -18, -1.4, -4
COc1ccc(/C=N/NC(=O)CN(C2=NS(=O)(=O)c3ccccc32)c2ccccc2)cc1OC
→ -9, 1.4, 6
CCn1c(C)cs/c1=N\C(=S)Nc1ccccc1C
→ -24, -0.5, 41
O=C(Cc1c[nH]c2ccccc12)N/N=C/c1ccc(F)cc1
→ -19, -0.2, -1

Some of the entries so far, as labelled records.
structure: C/C(=N\NC(=O)COc1ccc(C(C)(C)C)cc1)c1ccc(-n2ccnc2)cc1
  T cruzi inh: 13; A1 inh: 0.3; Beta cell apopt: -4
structure: O=C(/C=N/O)Nc1ccc(F)cc1
  T cruzi inh: 5; A1 inh: -0.3; Beta cell apopt: -1
structure: O=c1/c(=C/c2ccc(O)cc2)sc2nc3cc(Br)cnc3n12
  T cruzi inh: -18; A1 inh: -1.4; Beta cell apopt: -4
structure: COc1ccc(/C=N/NC(=O)CN(C2=NS(=O)(=O)c3ccccc32)c2ccccc2)cc1OC
  T cruzi inh: -9; A1 inh: 1.4; Beta cell apopt: 6

Continued:
Each structure is followed by: T cruzi inh, A1 inh, Beta cell apopt
COc1ccc(/C(C)=N/Nc2ccc(C(=O)O)cc2)cc1OC
→ -5, 1.5, -2
CNC(=S)N/N=C/c1cn(Cc2ccc(F)cc2)c2ccccc12
→ 17, 0.3, -4
Cn1c(=O)n(C)c2cc(/C=N/NC(=S)NCc3ccccc3)ccc21
→ -6, -0.8, -2
Cc1ccc(Oc2ccc(/C=N/O)cn2)cc1
→ 5, -3.8, 2
O=[N+]([O-])c1ccc(Cl)c(/C=N/N2CCN(Cc3ccc(Cl)cc3)CC2)c1
→ 21, 1.4, -7
Nc1ccc(Sc2cc(Cl)nc(N)n2)cc1
→ -1, -0.2, -3
COc1ccc(/C=N/N=C2\CC3CCC2(C)C3(C)C)cc1O (centres undefined)
→ 4, 0.1, 1
Cc1ccc2cc(/C=N/NC(=O)CN3CCOCC3)c(Cl)nc2c1
→ 8, 0.2, 0
C=CCn1c(CNc2ccc(C)cc2)nnc1SCC(=O)N/N=C/c1ccc(O)cc1O
→ 19, -0.5, 1
CCOC(=O)c1c(/N=C/C2C(=O)CC(C)(C)CC2=O)sc(C)c1C
→ -12, -0.2, -12
O=C(N/N=C\c1cc(Br)c(Br)o1)c1cncc(Br)c1
→ 9, -0.4, 4
Clc1ccc(Sc2ccc(/C=N/n3cnnc3)o2)cc1
→ 13, 1.0, -10
COc1ccc(-c2cc(C(=O)N/N=C/c3ccc(OC)c(COCC(F)(F)C(F)F)c3)c3ccccc3n2)c(OC)c1
→ 23, 1.8, -2
Cc1cc(NC(=O)CSc2nnc(Nc3ccccc3)s2)no1
→ -12, 0.0, -3
COc1ccc(/C=N/NC(=O)Nc2ccc3nsnc3c2)c(OC)c1
→ -17, 0.1, 4

Whole records from above:
`COc1ccc(/C(C)=N/Nc2ccc(C(=O)O)cc2)cc1OC` as listed: T cruzi inh = -5; A1 inh = 1.5; Beta cell apopt = -2
`CNC(=S)N/N=C/c1cn(Cc2ccc(F)cc2)c2ccccc12` as listed: T cruzi inh = 17; A1 inh = 0.3; Beta cell apopt = -4
`CCOC(=O)c1c(/N=C/C2C(=O)CC(C)(C)CC2=O)sc(C)c1C` as listed: T cruzi inh = -12; A1 inh = -0.2; Beta cell apopt = -12

(cont.)
Each structure is followed by: T cruzi inh, A1 inh, Beta cell apopt
Cc1ccc(/C=N\NC(=O)c2cc(OCC(F)(F)F)ccc2OCC(F)(F)F)cc1
→ -10, 1.2, 7
Cc1ccc(-c2n[nH]c(=S)n2/N=C\c2ccco2)cc1
→ -14, 0.3, 2
COc1ccc(CN(C)CC(=O)Nc2cc3oc4ccccc4c3cc2OC)c(OC)c1
→ 37, 0.6, 6
Cc1cccc(/C=N/n2c(-c3ccccn3)n[nH]c2=S)c1
→ -5, 0.4, 6
O=C(CN(c1ccc(Cl)c(C(F)(F)F)c1)S(=O)(=O)c1ccccc1)N/N=C/c1cccc2c1OCCO2
→ 13, 0.6, -5
CCOc1ccc(-c2n[nH]c(=S)n2/N=C/c2cc3c(cc2[N+](=O)[O-])OCO3)cc1
→ 1, -0.7, -3
O=S(=O)(N/N=C\c1cccn1-c1ccccc1)c1ccc2ccccc2c1
→ 3, -0.1, 3
O=C(O)CC1S/C(=N/N=C2CCCCC2)N(c2ccccc2)C1=O (centres undefined)
→ -12, 0.3, -7
N/C(CCN1CCCCC1)=N/O
→ -3, 0.5, -12
COc1ccc(N/N=C(/N=Nc2nc(C)cc(=O)[nH]2)c2ccccc2)cc1
→ 44, 0.0, 91*
O=S(=O)(c1ccc(Cl)c(NC(=S)N/N=C/c2ccc(O)cc2)c1)N1CCOCC1
→ -11, 0.3, 4
C=C(C)Cn1c(SCC(=O)N/N=C/c2cccc(O)c2)nc2ccccc2c1=O
→ -13, -0.7, -1
Cc1ccccc1-n1c(C)cc(/C=N/NC(=O)c2ccncc2)c1C
→ 2, 0.2, 0
C/C(=N\NC(=O)COc1ccccc1)c1cccs1
→ -17, 1.0, -4
Cc1ccccc1NC(=O)CCC(=O)N/N=C/c1cc([N+](=O)[O-])ccc1O
→ -28, 0.2, 10
COc1cc(/C=N/N2CCN(C3c4ccccc4-c4ccccc43)CC2)cc(OC)c1O
→ -15, -0.4, -2
CC(=O)COc1ccc2c(-c3ccccc3)cc(=O)oc2c1
→ -15, -0.6, -15
O=c1c2ccccc2nc(N/N=C/c2ccccc2)n1O
→ -1, 0.4, 1
Cc1cc(=O)[nH]c(N=N/C(=N/Nc2ccc(O)cc2)c2ccccc2)n1
→ 40, 0.0, 11
COc1ccc(/C=N/N=C2/NC(=O)C(CC(=O)O)S2)cc1OCc1ccc(Cl)cc1 (centres undefined)
→ 6, 0.4, -12
CCOc1ccc(/C=N/NC(=O)c2ccc(Cn3cc([N+](=O)[O-])cn3)o2)cc1
→ 0, -2.3, 2
CC(C)CC(/C(O)=C(\C#N)c1nc2ccccc2[nH]1)N1C(=O)c2ccccc2C1=O (centres undefined)
→ -6, -0.3, 9
O=C1CCCC2=C1C(c1ccc(Cl)cc1)n1c(s/c(=C\c3ccc4ccncc4c3)c1=O)=N2 (centres undefined)
→ -23, 0.2, 1
O=C(N/N=C/C(Cl)=C\c1ccccc1)c1cnccn1
→ -22, 0.8, 2
Cc1[nH]n(-c2ccccc2)c(=O)c1/C=N\NC(=O)C1COc2ccccc2O1 (centres undefined)
→ -32, -4.4, 78*
CC(C)(C)c1nnc(N/N=C/c2ccccc2)n(N)c1=O
→ -4, u, 3
Cn1c(N/N=C/c2ccccc2)nc2sc3c(c2c1=O)CCC3
→ 9, -1.1, 9
CCOc1cc(/C=N/O)cc(Cl)c1OC
→ 7, -0.5, -5
COc1ccc2oc(C(=O)c3ccccc3)c(NC(=O)CN3CCN(C)CC3)c2c1
→ 28, u, 0
O=C(Nc1ccccc1)O/N=C/c1ccncc1
→ 12, -0.7, 3
CCOC(=O)c1ccccc1NC(=O)Cc1sc(-c2cccnc2)nc1-c1ccc(C)cc1
→ 27, 0.4, -1
Cn1cccc1/C=N/NC(=O)c1ccc(OC(F)(F)C(F)F)cc1
→ 1, -1.8, 1
Cc1ccc(C(=O)N/N=C\c2ccc[nH]2)cc1[N+](=O)[O-]
→ -20, 0.0, 27
C=C(C)C1CC=C(C)/C(=N/NC(=S)Nc2ccccc2)C1 (centres undefined)
→ -12, -0.2, 5
S=c1nc2ccccc2c2nc(-c3ccccc3)[nH]n12
→ -9, -1.1, 35
C=CCOc1ccc(/C=N/n2cncn2)cc1OC
→ 21, -0.3, -9
O=C(O)C1Cc2[nH]cnc2C(c2ccccc2O)N1 (centres undefined)
→ 4, 0.2, -11
C=CCOc1ccc(/C=C/C(C)=N\O)cc1
→ 21, -5.9, 1
CN(C)CCCNCCCCNC(=O)/C=N/O
→ 1, 0.4, 2
O/N=C1\CCCC\C1=C/c1ccccc1
→ -13, 0.6, -1
C=CCc1ccccc1OCC(=O)N/N=C/c1ccc(OC(C)=O)cc1OC(C)=O
→ 33, 0.5, -21
O=C(O)C1C2C=CC(O2)C1C(=O)Nc1ccc2c(c1)OCCO2 (centres undefined)
→ 0, -0.1, 3
Oc1ccc2ccccc2c1/C=N/Nc1nnc(-c2ncc[nH]2)c2ccccc12
→ 58*, -0.3, 107*
CC(=O)Nc1cccc(NC(=O)COc2nncc3ccccc23)c1
→ 5, u, 0
O=C(N/N=C/c1cc([N+](=O)[O-])ccc1N1CCNCC1)c1ccc([N+](=O)[O-])cc1
→ -5, 0.5, 0
COc1ccc(/C=N/S(=O)(=O)CCc2ccccc2)c(OC)c1
→ -7, 0.5, -6
COc1cc(N=Nc2c(O)c3ccccc3[nH]c2=O)c(OC)cc1N=Nc1ccccc1
→ -7, -0.6, 4
C/C(=N\Nc1nc2c(s1)CCCC2)c1ccccc1
→ u, -4.2, 10
C/C(=N\NC(=O)C1CCCN(S(=O)(=O)c2ccccc2)C1)c1cccnc1 (centres undefined)
→ -6, 0.7, -5
C/C(=N\O)c1ccccc1C(=O)O
→ 11, 1.0, -5
CC(=O)Nc1ccc(NC(=O)Nc2ccc(C)cc2C)cc1
→ 0, 0.7, -5
CCOc1cc(/C=N/NC(N)=O)cc(Br)c1OCC(=O)Nc1ccccc1C
→ -4, -0.3, 4
COc1ccc2cc(/C=N/NC(=O)c3c(Cl)cnn3C)c(Cl)nc2c1
→ 11, -0.2, -5
C=CCOc1ccc(/C=N/O)cc1Cl
→ -5, 0.2, 0
O=C(Cn1nnc(-c2ccccc2)n1)N/N=C/c1ccc(-c2ccc(Cl)cc2)o1
→ -21, 1.0, 34
Cc1ccc(-c2ccc(/C=N/N3C(=O)C4C5C=CC(C6CC56)C4C3=O)o2)c([N+](=O)[O-])c1 (centres undefined)
→ 30, -0.1, -4
C/C(Cn1cnc([N+](=O)[O-])n1)=N\NC(=O)c1cccc(F)c1
→ 63*, 1.0, -1
COc1cccc([C@H](O)Cn2cc(-c3ccc(CON=C(C)C)cc3)nn2)c1
→ 0, -0.2, 2
COc1ccc(/C=N/Nc2cc(C)nc(N)n2)cc1
→ 1, 0.8, -10
Clc1cccc(/C=N\Nc2nccs2)c1
→ -9, -3.6, -1

(further entries)
Each structure is followed by: T cruzi inh, A1 inh, Beta cell apopt
C/C(CC(=O)Nc1ccc(F)cc1F)=N\NC(=O)C(=O)N1CCCCC1
→ -5, 0.1, -1
O=S(=O)(c1cc(O)ccc1O)c1cccc2c(S(=O)(=O)c3cc(O)ccc3O)cccc12
→ -4, 0.1, -5
Cc1c(/C=N/NC(=O)C(NC(=O)c2ccc3c(c2)OCO3)C(C)C)c2ccccc2n1C (centres undefined)
→ -13, 1.3, 0
COc1cc(/C=N/NC(N)=S)cc(Br)c1OCc1ccccc1F
→ 39, 2.5, 22
Cn1cc(C(=O)c2ccc(Cl)cc2Cl)cc1C(=O)N/N=C(\N)COc1cccc(C(F)(F)F)c1
→ -28, 0.9, 17
Cc1cc(-c2n[nH]c(=S)n2/N=C/C(Cl)=C/c2ccccc2)n[nH]1
→ -19, 0.3, -16
CCOC(=O)C1=C(C)n2c(s/c(=C3\C(=O)Nc4ccccc43)c2=O)=NC1c1ccc(OC)cc1 (centres undefined)
→ -36, 0.4, -3
Cn1nc(C(F)(F)F)c(/C=N/OC(=O)c2ccccc2)c1Sc1ccc(Cl)cc1
→ 12, -0.2, 7
O=C(Nc1ccc2c(c1)OCO2)[C@@H]1[C@@H]2C(=O)N(C3CCCCC3)C(=O)[C@@H]2C2c3ccccc3C=CN21 (some centres undefined)
→ 13, 0.2, 1
O/N=C1\CCCc2nnc3c(c21)CCCC3
→ 11, -0.3, -3
COc1cc(/C=N\NC(=O)Cn2nnc3ccccc32)cc(OC)c1OC
→ -6, -0.8, 0
COc1ccc2c(c1)OCC1=C2CCC2(C)C(=O)CC=C12 (centres undefined)
→ 1, 0.9, -3
Cc1ccc(OCCSc2ncnc3sc(C)c(C)c23)cc1C
→ 0, 0.9, -2
CCOc1cc(/C=N/O)cc(Br)c1OC
→ -5, -0.9, -10
CC(C)c1ccc(C(=O)NNC(=O)C2C3CCC(C3)C2C(=O)O)cc1 (centres undefined)
→ -1, 0.1, -8
O=[N+]([O-])c1cccc(/C=N/Nc2nnc(-c3ccccc3)c(-c3ccccc3)n2)c1
→ 14, 1.5, -4

A portion of the library, so the mix of outcomes need not match the whole.
